# A1 apoptosis 2 – blocks A1, raising caspase activity; MEF A1-2A-BIM cells, caspase-Glo luminescence, 3 h; percent of clofoctol response, DMSO zero; caspase activation, % (concentration not given with the values); 24,000 tested, under 10 active; AID 2465; in the data active = caspase activation above about 5.9%;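 also: wells of about 30 µL received 50 nL stock; the first replicate is given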
#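 Evaluation: Caspase-3/7 activity from luminescence increase | Assay system: A1-2A-BIM mouse embryonic fibroblasts | Quantity: 2500 MEF cells/well | Medium: RPMI-1640 plus 10% FBS | Detection: Caspase-Glo 3/7 luminescence, 1 h at room temperature | Dosing: 50 nL compound per well, pinned | Timing: Cells settled overnight, compound exposure 3 h at 37 °C, 5% CO2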
# * hit, by the source's call. Only part of the results is shown; rates above refer to the full screens.
SMILES,A1 apoptosis 2
C[C@H]1CN([C@@H](C)CO)C(=O)Cc2cc(NS(=O)(=O)c3ccc(Cl)cc3)ccc2O[C@@H]1CN(C)Cc1ccc(C(=O)Nc2ccccc2N)cc1,0.6
C[C@@H]1CCCCO[C@@H](CN(C)Cc2ccncc2)[C@H](C)CN([C@@H](C)CO)C(=O)c2cc(NS(=O)(=O)c3ccccc3)ccc2O1,0.4
Cc1cc(C(=O)Nc2cccc3c2O[C@@H](CN(C)C(=O)Nc2ccccc2)[C@H](C)CN([C@H](C)CO)C3=O)n(C)n1,0.0
C#CCNC(=O)C1=C[C@H](C2CCCCC2)[C@@H](CCCO)[C@H](OCC)O1,-0.4
C[C@H](CO)N1C[C@H](C)[C@H](CN(C)C(=O)Nc2ccc(N3CCCCC3)cc2)OCc2cnnn2CCCC1=O,-0.9
C[C@@H]1CN([C@@H](C)CO)C(=O)c2cc(NS(=O)(=O)c3ccccc3)ccc2O[C@@H]1CN(C)C(=O)Nc1cccc2ccccc12,-0.7
C[C@H](CO)N1C[C@H](C)[C@H](CN(C)C(=O)Nc2ccc(F)cc2)Oc2ccc(NC(=O)CCN3CCOCC3)cc2C1=O,0.7
C[C@H](CO)N1C[C@H](C)[C@@H](CN(C)S(=O)(=O)c2cccc(F)c2)OCc2cnnn2CCCC1=O,0.4
C[C@@H]1CN([C@@H](C)CO)C(=O)c2cc(N(C)C)ccc2O[C@@H](C)CCCCO[C@@H]1CN(C)Cc1ccncc1,-0.1
CC(C)NC(=O)N(C)C[C@H]1Oc2ccc(NC(=O)Cc3ccccc3)cc2CC(=O)N([C@H](C)CO)C[C@@H]1C,0.4
C[C@H](CO)N1C[C@H](C)[C@@H](CN(C)Cc2ccc(C(F)(F)F)cc2)OCCCC[C@H](C)Oc2ccc(NC(=O)Cc3ccccc3)cc2C1=O,-0.5
C[C@@H]1CN([C@@H](C)CO)C(=O)c2cccc(NC(=O)c3ccc(-c4nccs4)cc3)c2O[C@H]1CN(C)C(=O)Nc1cccc2ccccc12,-1.6
COc1ccc(NC(=O)Nc2ccc3c(c2)C(=O)N([C@H](C)CO)C[C@@H](C)[C@H](CN(C)S(=O)(=O)c2cn(C)cn2)O3)cc1,-0.5
C[C@H](CO)N1C[C@H](C)[C@H](CN(C)Cc2ccc3c(c2)OCO3)OCCCC[C@H](C)Oc2ccc(NC(=O)c3ccncc3)cc2C1=O,-1.1
COc1ccc(S(=O)(=O)Nc2ccc3c(c2)C(=O)N([C@@H](C)CO)C[C@H](C)[C@H](CN(C)C(=O)Nc2ccc4c(c2)OCO4)O3)cc1,1.2
Cc1ccc(S(=O)(=O)Nc2cccc3c2O[C@H](CN(C)Cc2ccncc2)[C@@H](C)CN([C@@H](C)CO)C3=O)cc1,-0.6
COc1ccc(NC(=O)Nc2ccc3c(c2)C(=O)N([C@@H](C)CO)C[C@H](C)[C@H](CN(C)S(=O)(=O)c2ccc(F)cc2)O3)cc1,0.1
Cc1noc(C)c1S(=O)(=O)Nc1cccc2c1O[C@@H](CN(C)C(=O)Nc1ccc3c(c1)OCO3)[C@@H](C)CN([C@H](C)CO)C2=O,0.2
CC(C)NC(=O)N(C)C[C@H]1Oc2c(NC(=O)c3cnccn3)cccc2C(=O)N([C@@H](C)CO)C[C@@H]1C,-0.4
COc1ccc(NC(=O)N(C)C[C@@H]2Oc3c(cccc3N(C)C)C(=O)N([C@@H](C)CO)C[C@H]2C)cc1,-0.3
C[C@@H]1CN([C@H](C)CO)C(=O)c2cccc(NC(=O)C3CCOCC3)c2O[C@@H]1CN(C)Cc1ccncc1,-0.4
C[C@H]1CN([C@@H](C)CO)C(=O)c2cc(NC(=O)Nc3ccc(C(F)(F)F)cc3)ccc2O[C@H]1CN(C)S(=O)(=O)c1cccs1,-0.8
C[C@@H]1CN([C@@H](C)CO)C(=O)c2cc(NC(=O)Nc3ccc4c(c3)OCO4)ccc2O[C@@H](C)CCCCO[C@@H]1CN(C)S(=O)(=O)c1cccs1,0.6
Cc1noc(C)c1S(=O)(=O)Nc1ccc2c(c1)C(=O)N([C@H](C)CO)C[C@H](C)[C@H](CN(C)C(=O)NC(C)C)OCCCC[C@@H](C)O2,1.2
Cc1ccc(S(=O)(=O)N(C)C[C@@H]2Oc3ccc(NS(C)(=O)=O)cc3C(=O)N([C@H](C)CO)C[C@H]2C)cc1,-0.3
# Carrying on:
SMILES,A1 apoptosis 2
COc1ccc(NC(=O)Nc2ccc3c(c2)CC(=O)N([C@H](C)CO)C[C@@H](C)[C@@H](CN(C)C(=O)NC(C)C)O3)cc1,2.1
COc1ccc(NC(=O)Nc2ccc3c(c2)C(=O)N([C@@H](C)CO)C[C@H](C)[C@H](CN(C)S(=O)(=O)c2cccs2)OCCCC[C@@H](C)O3)cc1,1.1
C[C@@H]1CCCCO[C@H](CN(C)C(=O)Nc2cccc3ccccc23)[C@H](C)CN([C@H](C)CO)C(=O)c2cc(N(C)C)ccc2O1,0.7
C[C@@H]1CN([C@@H](C)CO)C(=O)Cc2cc(NC(=O)Nc3cccc4ccccc34)ccc2O[C@H]1CN(C)CC1CC1,0.6
CNC[C@H]1Oc2c(NC(=O)c3ccncc3)cccc2C(=O)N([C@H](C)CO)C[C@H]1C,0.0
COc1ccc(S(=O)(=O)N(C)C[C@H]2Oc3ccc(NC(=O)CCCCCC(=O)Nc4ccccc4N)cc3CC(=O)N([C@H](C)CO)C[C@H]2C)cc1,1.4
COc1ccc(S(=O)(=O)N(C)C[C@@H]2OCCCC[C@H](C)Oc3ccc(NC(=O)CCC(F)(F)F)cc3C(=O)N([C@H](C)CO)C[C@H]2C)cc1,-0.3
C[C@@H]1CCCCO[C@@H](CN(C)C(=O)Nc2ccccc2)[C@@H](C)CN([C@H](C)CO)C(=O)c2cc(NC(=O)Nc3ccc(C(F)(F)F)cc3)ccc2O1,0.0
COc1ccc(CN(C)C[C@@H]2OCCCC[C@@H](C)Oc3ccc(NC(=O)CCC(F)(F)F)cc3C(=O)N([C@H](C)CO)C[C@@H]2C)cc1,-0.4
CCO[C@@H]1OC(C(=O)N2CCN(Cc3ccc4c(c3)OCO4)CC2)=C[C@H](c2ccc(C(F)(F)F)cc2)[C@H]1CCCO,0.7
C[C@H]1CN([C@@H](C)CO)C(=O)c2cccc(NC(=O)NC3CCCCC3)c2O[C@@H]1CN(C)S(C)(=O)=O,0.0
C[C@H]1CN([C@@H](C)CO)C(=O)Cc2cc(NS(=O)(=O)c3ccc(Cl)cc3)ccc2O[C@H]1CN(C)C(=O)Nc1ccccc1,2.0
COc1ccc(NC(=O)N(C)C[C@@H]2OCCCC[C@@H](C)Oc3ccc(NS(=O)(=O)c4cn(C)cn4)cc3C(=O)N([C@H](C)CO)C[C@@H]2C)cc1,-0.3
COc1ccc(S(=O)(=O)N(C)C[C@@H]2OCCCC[C@H](C)Oc3ccc(NS(=O)(=O)c4c(C)noc4C)cc3C(=O)N([C@@H](C)CO)C[C@H]2C)cc1,-0.2
COc1ccc(S(=O)(=O)N(C)C[C@@H]2Oc3ccc(NC(=O)Cn4cnnn4)cc3C(=O)N([C@H](C)CO)C[C@H]2C)cc1,-0.5
C[C@H](CO)N1C[C@H](C)[C@H](CN(C)C(=O)c2ccncc2)OCCCC[C@H](C)Oc2ccc(NS(=O)(=O)c3ccc(Cl)cc3)cc2C1=O,0.1
C[C@@H]1CN([C@H](C)CO)C(=O)c2cc(NS(=O)(=O)c3ccc(Cl)cc3)ccc2O[C@H]1CN(C)C(=O)Nc1ccc2c(c1)OCO2,-1.7
COc1ccc(S(=O)(=O)Nc2cccc3c2O[C@H](CN(C)C(=O)NC2CCCCC2)[C@@H](C)CN([C@@H](C)CO)C3=O)cc1,-0.4
C[C@H]1CN([C@@H](C)CO)C(=O)Cc2cc(NS(=O)(=O)c3ccccc3)ccc2O[C@H]1CN(C)Cc1ccccc1,-0.2
C[C@@H]1CCCCO[C@@H](CN(C)C(=O)Nc2ccc3c(c2)OCO3)[C@@H](C)CN([C@H](C)CO)C(=O)c2cc(NC(=O)CCC(F)(F)F)ccc2O1,1.0
C[C@@H]1CN([C@H](C)CO)C(=O)c2cc(NS(=O)(=O)c3cn(C)cn3)ccc2O[C@@H]1CN(C)Cc1ccc(C(=O)O)cc1,0.1
C[C@@H]1CCCCO[C@H](CN(C)S(C)(=O)=O)[C@H](C)CN([C@@H](C)CO)C(=O)c2cc(NS(=O)(=O)c3cccs3)ccc2O1,1.7
C[C@@H]1CCCCO[C@@H](CN(C)CC2CCCCC2)[C@@H](C)CN([C@H](C)CO)C(=O)c2cc(NC(=O)Nc3ccc4c(c3)OCO4)ccc2O1,-2.8
O=C(O)CCCCCCC(=O)N/N=C/c1ccc(Br)o1,-0.3
C[C@@H]1CCCCO[C@H](CN(C)Cc2ccc(C(=O)O)cc2)[C@@H](C)CN([C@H](C)CO)C(=O)c2cc(NC(=O)Nc3cccc4ccccc34)ccc2O1,0.3

# Pulled by compound from above, 6 records:
SMILES,A1 apoptosis 2
C[C@@H]1CCCCO[C@H](CN(C)C(=O)Nc2cccc3ccccc23)[C@H](C)CN([C@H](C)CO)C(=O)c2cc(N(C)C)ccc2O1,0.7
C[C@@H]1CN([C@@H](C)CO)C(=O)Cc2cc(NC(=O)Nc3cccc4ccccc34)ccc2O[C@H]1CN(C)CC1CC1,0.6
C[C@H]1CN([C@@H](C)CO)C(=O)Cc2cc(NS(=O)(=O)c3ccc(Cl)cc3)ccc2O[C@H]1CN(C)C(=O)Nc1ccccc1,2.0
CCO[C@@H]1OC(C(=O)N2CCN(Cc3ccc4c(c3)OCO4)CC2)=C[C@H](c2ccc(C(F)(F)F)cc2)[C@H]1CCCO,0.7
CNC[C@H]1Oc2c(NC(=O)c3ccncc3)cccc2C(=O)N([C@H](C)CO)C[C@H]1C,0.0
C[C@@H]1CN([C@H](C)CO)C(=O)c2cc(NS(=O)(=O)c3ccc(Cl)cc3)ccc2O[C@H]1CN(C)C(=O)Nc1ccc2c(c1)OCO2,-1.7

# (continued)
SMILES,A1 apoptosis 2
C[C@@H]1CN([C@@H](C)CO)C(=O)c2cc(NS(=O)(=O)c3cccs3)ccc2O[C@@H](C)CCCCO[C@@H]1CN(C)C(=O)CCC(F)(F)F,-0.7
C[C@@H]1CCCCO[C@@H](CN(C)C(=O)CCC(F)(F)F)[C@H](C)CN([C@@H](C)CO)C(=O)c2cc(NC(=O)CCC(F)(F)F)ccc2O1,0.1
CC1=C(C/C=N/NC(=O)CCCCCC(=O)NO)C(C)(C)CCC1,0.8
C[C@@H]1CN([C@H](C)CO)C(=O)c2cccc(NC(=O)c3ccc(-c4nccs4)cc3)c2O[C@@H]1CN(C)Cc1ccc(-c2ccccc2)cc1,-1.5
C[C@H](CO)N1C[C@H](C)[C@@H](CN(C)S(=O)(=O)c2cccs2)Oc2c(NC(=O)NC3CCCCC3)cccc2C1=O,0.3
COc1ccc(S(=O)(=O)Nc2ccc3c(c2)CC(=O)N([C@H](C)CO)C[C@@H](C)[C@@H](CN(C)S(=O)(=O)c2ccc(OC)cc2)O3)cc1,0.0
Cc1noc(C)c1NC(=O)N(C)C[C@@H]1Oc2ccc(NC(=O)CCCCCC(=O)Nc3ccccc3N)cc2C(=O)N([C@H](C)CO)C[C@H]1C,-1.7
C[C@H](CO)N1C[C@H](C)[C@H](CN(C)C(=O)Nc2cccc3ccccc23)Oc2ccc(NC(=O)Cn3cnnn3)cc2CC1=O,-0.5
C[C@H]1CCCCO[C@@H](CN(C)Cc2ccc(C(F)(F)F)cc2)[C@@H](C)CN([C@@H](C)CO)C(=O)c2cc(NS(=O)(=O)c3cn(C)cn3)ccc2O1,0.8
O=C(CCCCCC(=O)N/N=C/c1ccoc1)NO,0.1
C[C@@H]1CCCCO[C@H](CN(C)Cc2ccc(C(F)(F)F)cc2)[C@H](C)CN([C@@H](C)CO)C(=O)c2cc(NC(=O)Nc3ccc4c(c3)OCO4)ccc2O1,-0.8
O=C(C1=C[C@H](c2ccc(Br)cc2)C[C@H](OCc2ccc(CO)cc2)O1)N1CCCC1,0.8
C[C@@H]1CN([C@@H](C)CO)C(=O)Cc2cc(NS(=O)(=O)c3ccc(Cl)cc3)ccc2O[C@@H]1CN(C)Cc1ccccc1,-0.8
Cc1noc(C)c1S(=O)(=O)N(C)C[C@H]1OCCCC[C@@H](C)Oc2ccc(NC(=O)Nc3ccc(C(F)(F)F)cc3)cc2C(=O)N([C@H](C)CO)C[C@@H]1C,2.2
C#CCNC(=O)C1=C[C@@H](c2ccc(C(F)(F)F)cc2)C[C@@H](OCc2ccc(CO)cc2)O1,0.8
C[C@@H]1CCCCO[C@H](CN(C)Cc2ccc(C(F)(F)F)cc2)[C@@H](C)CN([C@@H](C)CO)C(=O)c2cc(N(C)C)ccc2O1,0.6
C[C@@H]1CN([C@@H](C)CO)C(=O)c2cccc(NC(=O)Nc3ccccc3)c2O[C@@H]1CN(C)S(C)(=O)=O,0.2
C[C@@H]1CN([C@@H](C)CO)C(=O)c2cc(NC(=O)Cn3cnnn3)ccc2O[C@H]1CN(C)C(=O)Nc1cccc2ccccc12,0.0
Cc1noc(C)c1NC(=O)N(C)C[C@H]1Oc2c(NS(=O)(=O)c3cccs3)cccc2C(=O)N([C@@H](C)CO)C[C@H]1C,-0.2
C[C@H](CO)N1C[C@H](C)[C@H](CN(C)S(=O)(=O)c2ccc(Cl)cc2)Oc2c(NC(=O)Nc3cccc4ccccc34)cccc2C1=O,-0.5
